2A StopGo = High Throughput Screening for Foot and Mouth Disease Virus Antivirals; 410,000 tested, 1.2% active; human cells with a luciferase reporter of 2A StopGo recoding; control for the full effect not named in the record; Potency, µM (titrated, usually from 57.9 µM), for inactives: at the top dose signal change, negative = less light; active = well fitted falling curve with a large enough effect; inconclusive = small, poorly fitted or top-dose-only effect; inactive = no such curve, though single readings can be large or run the other way; tested in HEK293T cells; note: % is set by controls: 0 for no effect and ±100 for the full control effect; nearly all actives have a fitted effect of over 45% in size; luciferase light after 4 h
LASV entry inh = qHTS for Inhibitors of binding or entry into cells for Lassa Virus; Lassa virus pseudotype entry inhibition, cell reporter; control for the full effect not named in the record; Potency, µM (top dose mostly 37.9 µM), inactives show top-dose activity change, negative = inhibition, hits mostly inhibitors; 300,000 tested, 1.2% active; active means well fitted inhibition curve with a large enough effect; inconclusive means small, poorly fitted or top-dose-only effect, or effect the other way; inactive means flat fitted curve, though single readings scatter; tested in HEK293 cells; note: % is set by controls: 0 for no effect and ±100 for the full control effect; nearly all actives have a fitted effect of over 50% in size; luciferase read-out
SARS PLP yeast = qHTS of Yeast-based Assay for SARS-CoV PLP. S. cerevisiae expressing SARS-CoV PLpro, growth rescue; control for the full effect not named in the record. Potency, µM (highest dose often 32.9 µM), for inactives: at the highest dose activity, positive = growth rescue. 330,000 tested, 0.19% active. AID 485353, 2010; note: 0% is about no effect; nearly all actives have a fitted effect of over 55% in size; growth read by luminescence after 48 h
Cruzain inh Det = qHTS Assay for Promiscuous and Specific Inhibitors of Cruzain (with detergent); purified cruzain, Z-FR-AMC fluorescence, 0.01% Triton; AID 1478, 2009; Cruzipain (Trypanosoma cruzi), P25779; Potency, µM, for the others: max response, negative = inhibition, usual class: inhibitors; 200,000 tested, 0.43% active; active = well fitted curve in the direction sought with a large enough effect; inconclusive = small, poorly fitted or top-dose-only effect, or another doubt; inactive = no such curve, though single readings can be large; an effect the other way counts as inactive or inconclusive;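 note: plate controls were neutral wells for no effect and buffer without enzyme for full effect; nearly all actives have a fitted effect of over 40% in size; top concentration of the series not given in the record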
Target sequence (P25779 123-467 limits assumed): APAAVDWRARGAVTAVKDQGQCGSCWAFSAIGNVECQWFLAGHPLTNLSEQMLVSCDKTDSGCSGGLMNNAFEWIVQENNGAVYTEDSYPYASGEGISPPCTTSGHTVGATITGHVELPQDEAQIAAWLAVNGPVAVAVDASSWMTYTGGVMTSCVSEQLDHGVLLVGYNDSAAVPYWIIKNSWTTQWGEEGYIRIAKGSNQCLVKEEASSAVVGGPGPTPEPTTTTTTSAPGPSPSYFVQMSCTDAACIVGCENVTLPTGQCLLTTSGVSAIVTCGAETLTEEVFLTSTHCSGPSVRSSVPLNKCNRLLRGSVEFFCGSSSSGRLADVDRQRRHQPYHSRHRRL
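15 min RT preincubation of 1.5 nM cruzain with compound, then 2 uM Z-FR-AMC added; kinetic AMC fluorescence, 60 s delta. Triton X-100 0.01%, pH 5.5.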
MARV entry inh = qHTS for inhibitors of binding or entry into cells for Marburg Virus | Potency, µM (highest dose often 37.8 µM), for the others: top-dose activity change, negative = inhibition, most hits filed as inhibitors | Marburg virus pseudotyped entry inhibition, cell reporter; control for the full effect not named in the record; about a third of the inactives were read at about 46 µM | 300,000 tested, 1.8% active; active = well fitted inhibition curve with a large enough effect; inconclusive = small, poorly fitted or top-dose-only effect, or effect the other way; inactive = flat fitted curve, though single readings scatter; tested in HEK293 cells; about a fifth of its hits are not listed in these tables; note: % is set by controls: 0 for no effect and ±100 for the full control effect; luciferase read-out
RE007 growth inh = qHTS Assay for Inhibitors of the HIV-1 protein Vpr; S. pombe RE007 Vpr strain, BacTiter-Glo ATP luminescence, 24 h; control for the full effect not named in the record; Potency, µM (series often up to 92.2 µM), without a hit: at the top dose activity change, negative = less growth; 360,000 tested, 0.21% active; AID 651644, 2012; active = well fitted falling curve with a large enough effect; inconclusive = small, poorly fitted or top-dose-only effect; inactive = no such curve, though single readings can be large or run the other way;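 note: % is set by controls: 0 for no effect and ±100 for the full control effect; nearly all actives have a fitted effect of over 50% in size; the assay follows cell death caused by Vpr and the record does not say whether a fall means rescue or toxicity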
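Fission yeast strain RE007, carrying one chromosomally integrated HIV-1 vpr copy, was seeded at OD 0.01 in PMG+AL medium with 23 nL pinned compound. After 24 h at 30 °C and 99% humidity, viability was read by BacTiter-Glo luminescence.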
NS1 inh = qHTS Assay for Inhibitors of Influenza NS1 Protein Function | S. cerevisiae slowed by influenza A NS1, growth recovery by OD600 | Potency, µM (highest dose often 46.1 µM), inactives show at the top dose activity, positive = more growth | 270,000 tested, 0.4% active; note: actives are rising curves; nearly all actives have a fitted effect of over 50% in size
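In this qHTS, NS1 from influenza A is expressed in budding yeast, where it slows growth. Cells are switched from glucose to 2% galactose medium (pH 6.0, -URA), treated with compound, and growth recovery is read at OD600.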
Cruzain inh noDet = qHTS Assay for Promiscuous and Specific Inhibitors of Cruzain (without detergent); purified cruzain, Z-FR-AMC fluorescence, no detergent; Potency, µM, inactives show max response, negative = inhibition, hits mostly inhibitors; 200,000 tested, 2.3% active; active = well fitted curve in the direction sought with a large enough effect; inconclusive = small, poorly fitted or top-dose-only effect, or another doubt; inactive = no such curve, though single readings can be large; an effect the other way counts as inactive or inconclusive;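 note: plate controls were enzyme without inhibitor for no effect and buffer without enzyme for full effect; nearly all actives have a fitted effect of over 40% in size; top concentration of the series not given in the record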
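Detergent-free condition (0.00005% Triton X-100) in acetate buffer pH 5.5 with DTT. 1.5 nM enzyme and compound were pre-mixed 15 min, then 2 uM Z-FR-AMC substrate added; reaction progress from fluorescence change between first and third reads (60 s).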
The depositor's hits bear a star; u = inconclusive; x = not tested or not shown; [ ] = remark or other dose. Unless noted, calls come from the whole dose curve; as a rule, active means well fitted rising curve with a large enough effect; inconclusive means small, poorly fitted or top-dose-only effect; inactive means no such curve, though single readings can be large or run the other way. Potency is the fitted concentration of half-maximal effect.

Values run as follows: 2A StopGo	LASV entry inh	SARS PLP yeast	Cruzain inh Det	MARV entry inh	RE007 growth inh	NS1 inh	Cruzain inh noDet
> Cc1cc(NC(=O)CCN2C(=O)C3C4C=CC(C4)C3C2=O)ccc1Br (stereo not drawn)
 : 14%	x	-4%	x	-5%[46.1 µM]	-7%	-6%	x
> CSCC[C@H](NC(=O)OC(C)(C)C)C(=O)N1CCC(C(=O)N[C@H](C(=O)O)C(C)C)CC1
 : x	-3%	10%	0.0%	-5%	4%	4%	-1%
> OCCSc1nnc(Nc2ccccc2)s1
 : 14%	0%	-10%	8.3%	-6%	-13%	-88%	9%
> Cn1c2ccccc2c2cc(C(=O)N3CCOCC3)sc21
 : 37%[activator]	-2%	-12%	-2.3%	-47%	-17%	-10%	-1%
> CCCCc1nnc(NC(=O)CSc2nc(=O)cc(N)n2-c2ccccc2)s1
 : -21%	-17%	-5%	u	8%	-8%	0%	u
> O=C(CSc1nncn1-c1ccccc1)Nc1c(F)cccc1F
 : 14%	2%	2%	x	2%[46.1 µM]	16%	0%	x
> Cc1cc(C)c(-c2csc(-c3cc4ccccc4oc3=O)n2)cc1C
 : 3%	-6%[46.1 µM]	x	-0.2%	-15%[46.1 µM]	x	x	5%
> COc1cccc(CCNC(=O)CC2C(=O)NCCN2Cc2ccc(Cl)c(F)c2)c1 (stereo not drawn)
 : -8%	6%[46.1 µM]	0%	x	u	-4%	-9%	x
> CN1C(=O)Cc2cc(S(=O)(=O)CCC(=O)N3CCN(c4cccc(Cl)c4)CC3)ccc21
 : u	-11%[46.1 µM]	x	-0.3%	x	x	x	30%
> COc1ccc(NC(=S)N2CCC(NC(=O)C3CCCCC3)CC2)cc1
 : 22%	-14%[46.1 µM]	-2%	x	3%[46.1 µM]	-3%	10%	x
> COc1cccc(C(=O)/C=C/Nc2cccc(O)c2)c1
 : 13µM*	2.9µM*	-11%	-1.8%	u	-12%	-70%	-7%
> CCn1nnc2cc(C(=O)NCC(c3ccccc3OC)N(C)C)ccc21 (stereo not drawn)
 : 4%	15%	0%	x	18%[46.1 µM]	-7%	6%	x
> COc1ccc(OC)c(S(=O)(=O)N2CCCC(N3CCN(c4ccccc4)CC3)C2)c1 (stereo not drawn)
 : u	x	5%	x	x	13%	u	x
> O=C(NCCO)c1ccc2c(c1)S(=O)(=O)c1ccccc1C2=O
 : -11%	x	-1%	-3.6%	x	-16%	-3%	-10%
> CC(=O)O/N=C/c1c(Cl)n(C)c2ccccc12
 : -15%	13%	-1%	x	u	-30%	-2%	x
> Cc1ccc(C)c(S(=O)(=O)Nc2ccc(C(=O)NCCc3ccccn3)cc2)c1
 : 62%[activator]	u	0%	x	11%	-5%	-6%	x
> O=C(C1=C(O)C(=O)N(CC2CCCO2)C1c1ccccc1)c1ccco1 (stereo not drawn)
 : 30%	2%	-1%	x	10%[46.1 µM]	12%	4%	x
> CC(C)(C)c1ccc(C(=O)NC(=S)NCc2cccnc2)cc1
 : -11%	u	-70%	-3.8%	u	-27%	-65%	13%
> COc1ccccc1CNC(=O)/C=C/c1cc2c(cc1Br)OCO2
 : -21%	4%	-1%	4.0%	11%[46.1 µM]	u	11%	-19%
> Cc1ccc(N2CCN(/N=C/c3ccccc3)CC2)cc1
 : 32%[activator]	x	0%	x	x	-9%	5%	x
> O=C(OCC(=O)c1cccs1)c1cccc(C(=O)OCC(=O)c2cccs2)n1
 : x	-8%	-9%	1.0%	8%	10%	6%	-9%
> CC(=O)Nc1ccc(S(=O)(=O)NCc2nc(-c3ccc(C)cc3)no2)cc1
 : -19%	x	0%	x	x	-8%	21%	x
> CCCCNC(=O)O/N=C(\N)CS(=O)(=O)C(C)(C)C
 : -5%	-9%	1%	x	32%	30%	-32%	x
> CCOc1ccc(C(=O)NNC(=O)c2cc(S(=O)(=O)N3CCOCC3)ccc2Cl)cc1
 : 4%	12%	0%	x	u	12%	x	x
> COc1ccc(CNC(=O)CN(Cc2ccc(F)cc2)C(=O)CCC(=O)Nc2nccs2)cc1
 : 8%	-14%[46.1 µM]	2%	x	u	-2%	-27%	x
> COc1ccccc1/C=N/NC(=O)CC(=O)Nc1ccc(Cl)c(Cl)c1
 : -6%	-19%	-4%	-15%	-23%	6%	13%	-29%
> COc1ccccc1C(=O)Nc1ccccc1OCc1cc(=O)n2cc(C)sc2n1
 : 0%	u	x	-0.3%	-21%[46.1 µM]	x	x	-5%
> CCOC(=O)C(=O)NC1CCSC1=O (stereo not drawn)
 : x	2%	1%	8.5%	4%	9%	2%	7%
> COc1ccc(S(=O)(=O)NCc2ccc3c(c2)CCN3C(C)=O)cc1OC
 : -6%	u	x	1.5%	x	x	x	-5%
> O=C(CCN1C(=O)COc2ccccc21)NCCC1=CCCCC1
 : 2%	-22%	1%	9.4%	18%	13%	-15%	8%
> CC(NC(=O)Cc1cccs1)c1ccc2c(c1)OCO2 (stereo not drawn)
 : -5%	5%	3%	2.1%	13%	16%	2%	2%
> COC(=O)CSC1=C(C#N)C(c2ccsc2)CC(=O)N1 (stereo not drawn)
 : -20%	u	-8%	-2.6%	u	-1%	7%	u
> COC(=O)c1sccc1NC(=O)C1CC2CCC1C2 (stereo not drawn)
 : 16%	10%	-5%	-1.5%	-4%	3%	-11%[9.22 µM]	-8%
> CC1CCCN(C(=S)NC2CCCC2)C1 (stereo not drawn)
 : 16%	2%	1%	x	u	13%	3%	x
> O=C1COc2ccc(-c3csc(NCC4CCCO4)n3)cc2N1 (stereo not drawn)
 : 3%	u	2%	-3.9%	-11%[46.1 µM]	22%	9%	-3%
> N#Cc1ncc(C(F)(F)F)cc1Sc1ccccc1N
 : u	-1%	12%	1.1%	-7%	-11%	-67%	-29%
> CCSc1cc(N2CCCC2)nc(-c2cccc(C)c2)n1
 : -9%	u	-15%	-6.4%	u	-9%	25%	-12%
> CC(=O)Nc1ccc(NC(=O)Nc2ccccc2C)cc1
 : 36%[activator]	x	0%	x	x	11%	1%	x
> CCn1c(C)nc2cc(C(=O)NNC(=S)Nc3ccc(Cl)cc3)ccc21
 : 16%	x	1%	x	x	0%	-12%	x
> O=C1CC(c2cc(F)ccc2F)c2cc3c(cc2N1)CCC3 (stereo not drawn)
 : 0%	-15%	0%	x	u	1%	-2%	x
> O=C(COC(=O)c1ccccc1NC(=O)c1ccco1)NCc1ccc2c(c1)OCO2
 : -2%	17%	2%	-8.1%	18%	4%	3%	-18%
> O=c1oc2ccc(C#CC3(O)CCCCC3)cc2cc1-n1cc(C2(O)CCCCC2)nn1
 : -14%	x	0%	x	6%	19%	x	x
> O=C(C1=C(c2ccccc2)C(=O)c2ccccc2C1=O)c1ccccc1
 : 10µM*	2.6µM*	11%	-6.2%	u	-21%	-13%	-27%
> Cc1ccc(S(=O)(=O)/C(C#N)=C/c2ccccc2OCc2ccccc2)cc1
 : 12%	u	9%	1.6%	u	9%	6%	-19%
> O=C(CN1CCN(c2ccccc2)CC1)N1CCc2ccccc21
 : 14%	-18%[46.1 µM]	1%	x	3%[46.1 µM]	8%	-2%	x
> CC(=O)c1ccc(NC(=O)COC(=O)c2ccccc2N=Nc2ccc(N(C)C)cc2)cc1
 : 34%[activator]	-23%	3%	-7.0%	u	-24%	9%	11%
> CCOc1ccccc1CNC(=O)CN(c1ccc(C)cc1)S(=O)(=O)N(C)C
 : -3%	-21%[46.1 µM]	x	2.9%	x	x	x	5%
> N#CCC(=O)NCC1(c2ccccc2)CCCC1
 : -21%	-1%	3%	4.9%	4%	0%	1%	3%
> CC(=O)c1ccc(OCCCC(=O)Nc2ccc(C)c(S(=O)(=O)N3CCCCC3)c2)cc1
 : u	u	1%	x	u	-12%	x	x
> Cc1c(C(=O)N(C)C)sc2c1c(=O)n(-c1ccc(Cl)c(Cl)c1)c(=O)n2Cc1ccc(F)cc1
 : 0%	-2%[46.1 µM]	x	2.2%	x	x	x	12%
> Cc1ccccc1NC(=O)CSc1nnc(COc2ccc(Cl)cc2)o1
 : 1%	-22%[46.1 µM]	x	-5.5%	u	x	x	u
> Cc1ccc(S(=O)(=O)Nc2cccc(C(=O)NCc3ccc(S(N)(=O)=O)cc3)c2)cc1
 : 7%	x	1%	x	x	1%	-2%	x
> CC1(C(=O)NC2CCCCCCC2)CCC(=O)N1Cc1cccs1 (stereo not drawn)
 : -11%	-5%	2%	5.4%	-2%	7%	-5%	-1%
> CN(C)c1ccc(/C=C/C(=O)c2c(O)c3ccccc3oc2=O)cc1
 : 48%[activator]	10%	1%	x	-2%[46.1 µM]	4%	-3%	x
> Cc1ccc(OCC(=O)Nc2ccc3c(c2)nc(CCN2CCC(C)CC2)n3C)cc1
 : -11%	u	4%	x	u	-15%	3%	x
> CCOC(=O)C1=C(c2ccccc2)NC(=O)NC1c1ccsc1 (stereo not drawn)
 : -18%	-23%[46.1 µM]	-7%	x	10%[46.1 µM]	3%	16%	x

4 records drawn at random from those above:
Values run as follows: 2A StopGo	LASV entry inh	SARS PLP yeast	Cruzain inh Det	MARV entry inh	RE007 growth inh	NS1 inh	Cruzain inh noDet
> Cc1cc(NC(=O)CCN2C(=O)C3C4C=CC(C4)C3C2=O)ccc1Br (stereo not drawn)
 : 14%	x	-4%	x	-5%[46.1 µM]	-7%	-6%	x
> O=C(C1=C(O)C(=O)N(CC2CCCO2)C1c1ccccc1)c1ccco1 (stereo not drawn)
 : 30%	2%	-1%	x	10%[46.1 µM]	12%	4%	x
> CCOC(=O)C(=O)NC1CCSC1=O (stereo not drawn)
 : x	2%	1%	8.5%	4%	9%	2%	7%
> CCOc1ccccc1CNC(=O)CN(c1ccc(C)cc1)S(=O)(=O)N(C)C
 : -3%	-21%[46.1 µM]	x	2.9%	x	x	x	5%

Screens deposited in PubChem by National Center for Advancing Translational Sciences (NCATS).
